KCNQ2 enhance: potentiators of rat KCNQ2 potassium channel | CHO-K1 KCNQ2, FluxOR thallium flux fluorescence; stronger effect = higher value | B-score at 10 µM | 310,000 tested, 0.54% active | AID 2239;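 active means fluorescence ratio B-score at least 3 SD of library B-scores, with initial fluorescence B-score within 3 SD, cut at about 5.3 in these data; same plate scores as AID 2156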;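 further: B-score of peak minus minimum over baseline fluorescence ratio after K+ and Tl+ stimulus; positive B-score means potentiation of KCNQ2 with more thallium influx and brighter signal; only the inactives scoring about 0 or higher are listed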
Target sequence (O88943 whole entry, looked up): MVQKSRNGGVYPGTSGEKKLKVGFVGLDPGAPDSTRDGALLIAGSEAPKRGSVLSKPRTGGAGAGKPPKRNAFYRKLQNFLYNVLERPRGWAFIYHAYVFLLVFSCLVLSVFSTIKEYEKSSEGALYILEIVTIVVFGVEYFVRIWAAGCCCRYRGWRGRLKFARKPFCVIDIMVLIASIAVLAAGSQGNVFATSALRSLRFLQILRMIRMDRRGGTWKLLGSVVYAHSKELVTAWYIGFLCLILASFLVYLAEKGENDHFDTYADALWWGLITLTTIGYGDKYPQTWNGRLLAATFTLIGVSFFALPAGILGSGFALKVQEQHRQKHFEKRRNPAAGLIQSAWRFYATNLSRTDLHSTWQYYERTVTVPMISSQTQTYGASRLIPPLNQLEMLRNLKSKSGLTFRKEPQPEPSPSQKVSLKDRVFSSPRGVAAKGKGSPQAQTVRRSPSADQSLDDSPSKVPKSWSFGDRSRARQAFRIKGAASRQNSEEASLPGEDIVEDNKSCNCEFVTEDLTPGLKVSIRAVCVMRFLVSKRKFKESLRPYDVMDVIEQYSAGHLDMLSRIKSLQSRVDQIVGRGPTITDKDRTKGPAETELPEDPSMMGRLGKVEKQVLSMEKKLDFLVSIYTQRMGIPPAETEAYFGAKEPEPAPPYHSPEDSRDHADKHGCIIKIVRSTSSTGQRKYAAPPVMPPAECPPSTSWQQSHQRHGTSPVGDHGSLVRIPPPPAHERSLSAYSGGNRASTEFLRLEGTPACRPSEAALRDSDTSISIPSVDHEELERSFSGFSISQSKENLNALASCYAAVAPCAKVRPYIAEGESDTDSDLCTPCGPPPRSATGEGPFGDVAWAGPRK
KCNQ2 enhance baseline: second read-out of KCNQ2 enhance, no call of its own (marks repeat the call); B-score; compound at 10 µM; measured here: initial fluorescence intensity artifact check;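 brightness before thallium and not channel activity; 0 = typical well and far values either way flag optical interference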
The depositor's hits bear a star. Not all compounds are listed; rates above refer to the full screens.

The line under a structure holds: KCNQ2 enhance | KCNQ2 enhance baseline
- S=C(NC1CC2CCC1C2)N1CCN(c2cccc(Cl)c2)CC1 (stereo not given)
    0.24 | 0.91
- CC(c1ccccc1)C(NC(=O)OCC1c2ccccc2-c2ccccc21)C(=O)O (stereo not given)
    0.56 | -0.99
- CSc1cccc(NC(=O)CSc2ccccc2)c1
    0.01 | -1.36
- COCCNC(=O)Cn1c(=O)n(CCCCCC(=O)NCc2ccc3c(c2)OCO3)c(=O)c2sccc21
    0.42 | 0.06
- O=C(N/N=C/c1ccco1)c1cccc(NC(=O)c2ccccc2Cl)c1
    1.81 | -1.11
- C=CCNC(=O)/C(=C\c1cccc([N+](=O)[O-])c1)NC(=O)c1ccccc1
    0.24 | 0.18
- N#CC1(NC(=O)CN2C(=O)c3ccc([N+](=O)[O-])cc3C2=O)CCCCC1
    0.25 | 0
- O=[N+]([O-])c1cc(S(=O)(=O)NC2=NCCCCC2)ccc1NCC1CCCCC1
    2.14 | -0.43
- COc1cc(/C=N/NC(=O)c2ccc(-c3ccccc3)cc2)cc(OC)c1OC
    2.5 | -0.79
- CCOC(=O)c1cnc2ccc(C(=O)OC)cc2c1NCc1ccco1
    2.58 | -0.16
- CC(=O)c1c(NC(=O)c2ccccc2)[nH]c(-c2ccccc2)nc1=S
    3.8 | 0.42
- O=C(Nc1ccncc1)Nc1cc(Cl)ccc1Cl
    0.68 | -1.34
- O=C(C[n+]1ccc(-c2nnc3n2CCC3)cc1)c1ccc(Cl)c(Cl)c1
    1.84 | -0.01
- CCNC(=O)CN(c1ccccc1OC)S(=O)(=O)c1cccs1
    0.77 | 1.19
- Cc1ccccc1N(CC(=O)NCCSCc1ccccc1)S(C)(=O)=O
    0.67 | 0.2
- Cc1ccc2oc(C(=O)N3CCN(Cc4nccn4C)CC3)c(C)c2c1
    0.47 | -0.67
- CC(C)C(=O)Nc1ccc(N2CCCC2)c(Cl)c1
    1.44 | 1.37
- O=C(NCCCN1CCCCC1)c1ccc2c(=O)n(CCc3ccccc3)c(=O)[nH]c2c1
    0.17 | -1.28
- Cc1ccc(OCCCN2CCOCC2)c([N+](=O)[O-])c1
    1.32 | -0.43
- CC(=O)Nc1cc(-c2nn(C)c(=O)c3ccccc23)ccc1N1CCCCC1
    0.44 | 0.38
- CCCCCN(C(=O)CCC(=O)OCC(=O)c1c(C)cc(C)cc1C)c1c(N)n(CCCC)c(=O)[nH]c1=O
    0.48 | -1.69
- O=C(CN1C(=O)NC2(CCCCCC2)C1=O)N1CCN(S(=O)(=O)c2ccccc2)CC1
    0.01 | -1.64
- CCOC(=O)Cc1csc(NC(=O)c2ccc(Br)o2)n1
    0.33 | -0.84
- CCCCOc1ccc(-c2nnn(C(C)C(=O)OCC)n2)cc1 (stereo not given)
    0.08 | -0.16
- COc1cc(NC(=O)CN(C)S(=O)(=O)c2ccc3c(c2)CCC(=O)N3)cc(OC)c1
    0.86 | -0.3
- O=C(O)C1CCCN1C(=O)OCc1ccccc1 (stereo not given)
    0.08 | -0.21
- Cc1cccc2c1N(C(=O)CN1C(=O)c3ccccc3C1=O)C(C)(C)c1ssc(=S)c1-2
    0.02 | -0.69
- Cc1ccc(C(NC(N)=O)c2ccccc2)cc1 (stereo not given)
    0.33 | -0.91
- COc1ccc(-c2ccc(N)[n+](CCCC(=O)O)n2)cc1
    2.16 | -2.46
- Cc1ccc([N+](=O)[O-])c(NC2OC(CO)C(O)C2O)c1 (stereo not given)
    2.39 | -0.43
- COC(=O)c1ccc(NC(=O)CN2CCN(c3ccccn3)CC2)cc1
    0.92 | 0.05
- CC(NC(=O)COC(=O)/C=C/c1ccco1)c1ccccc1 (stereo not given)
    0.49 | -0.72
- Cc1cc(-n2cnnn2)cc(C)c1S(=O)(=O)NCCOc1ccccc1
    0.79 | 0.37
- CCOC(=O)c1ccc(N/C=C\C(=O)c2cccc(OC)c2)cc1
    0.22 | 0.07
- CCOC(=O)c1c(NC(=S)NCC2CCCO2)sc(C)c1C (stereo not given)
    0.94 | -1.25
- CCc1cc(=O)oc2cc(OCc3nn[nH]n3)ccc12
    0.86 | -0.12
- CCCCC/C=N\NC(=O)Cc1ccc([N+](=O)[O-])cc1
    1.36 | -0.01
- Fc1cccc(NC(=S)NCc2ccccn2)c1
    0.74 | -0.33
- Cc1cc(NC(=O)CCOc2ccc(F)cc2)no1
    1.35 | 0.95
- CCn1c(SCC(=O)O)nc2sc3c(c2c1=O)CCC3
    1.21 | 0.52
- O=C(CC1C(=O)NCCN1Cc1ccc(Cl)c(F)c1)NCC1CCOCC1 (stereo not given)
    2.04 | 0.56
- COc1cc2c(cc1OC)[C@H](Cc1ccc(O)cc1)NCC2
    0.98 | 0.31
- Cc1c(N2C(=O)CS/C2=N\N=C\c2ccc(Cl)cc2)c(=O)n(-c2ccccc2)n1C
    0.06 | 1.99
- O=C(NC(c1ccccc1)c1ccccc1)N1CCN(CCO)CC1
    0.33 | -0.8
- O=C(Nc1ccc(F)c(F)c1)c1ccc(F)c(S(=O)(=O)N2CCC3(CC2)OCCO3)c1
    5.44* | -1.91*
- O=C(COc1ccc2c(C(F)(F)F)cc(=O)oc2c1)NCc1cccs1
    1.23 | -0.02
- Cc1ccc(NC(=O)C2=C(c3ccccc3)S(=O)(=O)CCS2(=O)=O)cc1
    2.83 | 0.01
- CC1CCC(C(C)C)C(OCC(O)CN2CCOCC2)C1 (stereo not given)
    0.23 | 0.14
- COc1ccc(OC)c(C(=O)N2CCC(CCC(=O)NC3CC3)CC2)c1
    0.01 | 1.51
- Cc1ccc(S(=O)(=O)n2nc(OC(=O)C3CCCCC3)cc2N)cc1
    2.43 | 0.75

Going on with the list:
The line under a structure holds: KCNQ2 enhance | KCNQ2 enhance baseline
- COc1ccccc1N1CCN(C(=O)Cn2cnc3c2c(=O)n(C)c(=O)n3C)CC1
    2.05 | 0.96
- COc1cccc(-c2cc(C(F)(F)F)nc(-n3cc(C)cn3)n2)c1
    0.23 | 1.34
- Cn1nnnc1Sc1ccc(C(=O)O)cc1[N+](=O)[O-]
    0.49 | 1.16
- COC(=O)c1cc(C)cc(=O)o1
    0.56 | -1.59
- COc1ccc(C(=O)Nc2nnc(S(=O)(=O)N(C)Cc3ccccc3)s2)cc1
    0.91 | -0.31
- Cc1ccc2nc(NC(=O)C(NS(=O)(=O)c3cccc4nsnc34)C(C)C)sc2c1 (stereo not given)
    0.06 | 0.8
- O=C(Nc1ncc([N+](=O)[O-])s1)C1CC(=O)N(c2ccc(F)cc2)C1 (stereo not given)
    1.57 | -1.32
- CCOC(=O)C1=C(CS(=O)(=O)c2ccc(C)cc2)NC(=O)NC1c1cc(OC)c(O)c(OC)c1 (stereo not given)
    0.04 | 0.59
- CCCn1c(-c2ccccc2)cc(SC)c(C#N)c1=O
    2.39 | -1.61
- Cc1c(CCOC(=O)c2cc([N+](=O)[O-])cc([N+](=O)[O-])c2)sc[n+]1CC(=O)c1ccccc1
    0.27 | -0.16

As a working copy, some entries already given.
The line under a structure holds: KCNQ2 enhance | KCNQ2 enhance baseline
- COc1ccccc1N1CCN(C(=O)Cn2cnc3c2c(=O)n(C)c(=O)n3C)CC1
    2.05 | 0.96
- COc1cccc(-c2cc(C(F)(F)F)nc(-n3cc(C)cn3)n2)c1
    0.23 | 1.34
- Cn1nnnc1Sc1ccc(C(=O)O)cc1[N+](=O)[O-]
    0.49 | 1.16
- COC(=O)c1cc(C)cc(=O)o1
    0.56 | -1.59
- COc1ccc(C(=O)Nc2nnc(S(=O)(=O)N(C)Cc3ccccc3)s2)cc1
    0.91 | -0.31
- Cc1ccc2nc(NC(=O)C(NS(=O)(=O)c3cccc4nsnc34)C(C)C)sc2c1 (stereo not given)
    0.06 | 0.8

(continued)
The line under a structure holds: KCNQ2 enhance | KCNQ2 enhance baseline
- CC(NC(=O)c1cccnc1)C(c1cccs1)N1CCOCC1 (stereo not given)
    0.82 | -1.01
- COc1cc(Cl)c(C)cc1NC(=O)COC(=O)c1cc(SC)ccc1Cl
    0.02 | 1.05
- Cc1cc(=O)n2[nH]c(-c3ccc(Cl)cc3)cc2n1
    1.66 | 2.47
- CN(CCO)c1cc(N(C)CCO)c([N+](=O)[O-])cc1[N+](=O)[O-]
    1.58 | 0.79
- Cc1[nH]c2ccc(C(=O)N3CCN(C)CC3)cc2c1C
    0.97 | 1.97
- CS(=O)(=O)Nc1ccc(C(=O)Nc2cccc([N+](=O)[O-])c2)cc1
    1.97 | -0.26
- Cc1ccc(NC2(C#N)C(=O)Nc3ccccc32)cc1 (stereo not given)
    0.62 | -0.48
- Cc1ccc(S(=O)(=O)NCc2ccco2)cc1C(N)=O
    1.57 | -0.07
- CC(=O)Nc1cccc(OCC(=O)NS(=O)(=O)c2ccc(Cl)cc2)c1
    0.75 | -2.13
- CCc1cccc(OCCCCNCCO)c1
    0.17 | 1.33

The list goes on; it opens with the 2 that closed the last part.
The line under a structure holds: KCNQ2 enhance | KCNQ2 enhance baseline
- CC(=O)Nc1cccc(OCC(=O)NS(=O)(=O)c2ccc(Cl)cc2)c1
    0.75 | -2.13
- CCc1cccc(OCCCCNCCO)c1
    0.17 | 1.33
- N#CCSc1nnc(COc2ccc3ccccc3c2)o1
    2.62 | -1.4
- O=C(OCC(=O)N1CCCC1=O)c1cc(S(=O)(=O)N2CCOCC2)ccc1F
    2.35 | 0.57
- C[n+]1cccc2c(Br)ccc([O-])c21
    0.54 | -0.1
- COc1ccc(C(=O)N2CCCC(CNC(=O)c3ccc(F)cc3)C2)cc1OC (stereo not given)
    0.33 | -0.93
- c1ccc(CCC2CCCCN2Cc2cn[nH]c2-c2cc3ccccc3o2)nc1 (stereo not given)
    0.18 | 0.4
- O=c1[nH]ncc(N/N=C\c2ccncc2)c1Cl
    1.06 | -0.68
- CCCc1cc(=O)[nH]c(SCC(=O)Nc2ccc(Br)cc2)n1
    0.5 | -0.3
- COc1ccc(-c2nnc3ccc(SCC(=O)NCc4ccco4)nn23)cc1
    0.01 | 1.27
- Oc1c(Cl)cc(Cl)cc1/C=N/c1ncn[nH]1
    11.4* | 1.71*
- COc1ccc(CC2(CO)CCN(Cc3ccc4c(c3)CCO4)CC2)cc1
    0.99 | 0.43

More records follow:
structure	KCNQ2 enhance	KCNQ2 enhance baseline
Cn1c(=O)c2c(nc(SCCN3CCOCC3)n2Cc2ccccc2Cl)n(C)c1=O	0.01	-1.22
COc1ccc(CC(=O)Nc2c3c(nn2-c2cccc(C)c2C)CS(=O)C3)cc1OC (stereo not given)	0.37	0.1
CC(C)c1ccc(NC(=O)C2C3C=CC4(CN(Cc5cccnc5)C(=O)C24)O3)cc1 (stereo not given)	0.74	-0.47
COc1ccc(C(=O)Cn2cc[n+](C)c2)cc1	0.55	-0.03
O=C(Nc1ccccn1)c1ccc(=O)[nH]n1	0.24	1.36
O=C(c1cccnc1)C1CCCN(Cc2nc(Cc3ccccc3F)no2)C1 (stereo not given)	0.04	1.6
COc1ccc(C(=O)Nc2c(N)nc[nH]c2=O)cc1	1.47	-0.31
Cc1cc(C)nc(NC(=O)c2ccc(C)c(C)c2)n1	0.15	-0.01
COc1ccc(-c2nnc(CSc3nc4ccccc4c(=O)n3CC3CCCO3)o2)cc1OC (stereo not given)	0.08	-1.85
Cc1ccc(S(=O)(=O)NCC(=O)N(CC(=O)NC2CCCC2)CC2CCCO2)cc1 (stereo not given)	0.21	-0.03
COCC(C)OC(=O)C(C#N)c1nc2ccccc2nc1N1CCN(Cc2ccccc2)CC1 (stereo not given)	0.32	0.79
COC(=O)c1ccccc1NC(=O)Cn1cnc2c(cnn2-c2ccc(C)c(C)c2)c1=O	1.43	0.22
O=C1CC(c2ccccc2)c2c(O)cc(O)cc2O1 (stereo not given)	1.07	0.03
CCN(CCCC(=O)c1ccc(F)cc1)CCc1ccccc1	0.62	-0.43
Cc1cc(Cl)ccc1OCCn1cncn1	1.34	-0.39
Cc1ccc(CNC(=O)CS(=O)(=O)c2ccccc2)cc1	0.02	-2.22
Cn1cc(CCC(=O)N2CCCC(CCC(=O)NCc3ccc(F)c(F)c3)C2)cn1 (stereo not given)	0.97	0.06
CCC(=O)N1c2ccc(S(=O)(=O)N3CCN(C)CC3)cc2CC1C (stereo not given)	0.09	0.77
CC(C)c1ccc(NC(=O)CCNC(=O)Cn2ccc3ccccc3c2=O)cc1	0.1	0.63
COc1ccc(OC)c(C(=O)c2ccccn2)c1	0.87	-0.02
O=C(CSc1nnc(CNC(=O)c2ccco2)o1)Nc1ccc(F)cc1F	1.58	0.62
CSc1ccccc1OCc1cc(C(=O)NCCN2CCCC(O)C2)no1 (stereo not given)	0.02	-0.21
CC(=O)Nc1cccc(NC(=O)Cc2cccs2)c1	0.07	-0.21
O=C(CCC1N=C2c3ccccc3N=C(SCC(=O)NCc3ccco3)N2C1=O)NCc1ccco1 (stereo not given)	0.03	-1
O=C(CCCn1nnc2ccccc2c1=O)N[C@H](C(=O)O)c1ccccc1	0.03	-1.06
COc1ccc(/C=N/NC(=O)CCn2cnc(-c3ccccc3)c2-c2ccccc2)cc1OC	0.43	-1.34
COc1cc(SC)ccc1C(=O)NC1CCCCC1	0.29	0.35
CC(Oc1ccccc1F)C(=O)NNC(=O)C1CC(=O)N(c2ccc3c(c2)OCCO3)C1 (stereo not given)	0.63	-1.97
CCOC(=O)c1nnn(-c2nonc2-c2ccccc2)c1C	0.5	-0.5
